miR-21 reporter – raises the signal of a miR-21 reporter; 340,000 tested, under 10 active; AID 2288; HeLa miR-21 FLuc reporter, luciferase, 48 h; Potency, µM (highest dose often 38.3 µM), for the others: at the highest dose reporter change, positive = more light; active = well fitted rising curve with a large enough effect; inconclusive = small, poorly fitted or top-dose-only effect; inactive = no such curve, though single readings can be large or run the other way;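 further: % of control where 0% means no effect; miR-21 action dims this reporter so a rising signal means less miR-21 action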
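HeLa miR-21-FLuc reporter line, endogenous miR-21; 2000 cells/well in DMEM/10% FBS; compound titration up to ~40uM final, 48 h, 37 degree Celsius; luciferase detection reagent, 15 min lysis, CCD luminescence.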
GLA inh pH 4.5 – alpha-galactosidase A (human) inhibition, pH 4.5 | P06280 | purified enzyme, 4-MU-alpha-Gal fluorescence, pH 4.5 | activity change, negative = inhibition, % at 105 µM | 230,000 tested, under 10 active | AID 1467; inconclusive = small, poorly fitted or top-dose-only inhibition, or a rising curve; inactive = flat fitted curve, though single readings scatter; no compound was filed as active;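 further: 0% = full activity with enzyme and -100% = basal without enzyme; dose as in the result columns while the protocol names 77 µM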
Target sequence (P06280 whole entry, looked up): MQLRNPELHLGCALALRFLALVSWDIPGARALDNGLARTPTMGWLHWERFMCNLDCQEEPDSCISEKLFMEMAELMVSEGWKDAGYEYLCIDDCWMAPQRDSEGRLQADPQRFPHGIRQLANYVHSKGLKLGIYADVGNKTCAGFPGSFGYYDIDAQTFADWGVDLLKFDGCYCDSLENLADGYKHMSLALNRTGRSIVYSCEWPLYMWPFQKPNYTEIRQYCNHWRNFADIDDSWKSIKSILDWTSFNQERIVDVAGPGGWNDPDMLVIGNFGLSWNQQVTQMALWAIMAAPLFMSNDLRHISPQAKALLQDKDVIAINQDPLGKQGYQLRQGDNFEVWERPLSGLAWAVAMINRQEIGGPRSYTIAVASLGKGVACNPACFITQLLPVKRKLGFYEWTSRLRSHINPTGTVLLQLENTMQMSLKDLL
Rango complex inh – inhibitors of Rango-importin beta complex formation; Q14974; Rango CFP/YFP FRET sensor + importin beta, 45 min; Potency, µM (doses to about 92.2 µM), for the others: at the highest dose inhibition of complex formation; 0.031% of 340,000 active; AID 540263; active = rising FRET ratio curve, often small or poorly fitted; inconclusive = mostly compound fluorescence or quenching in the first reads; inactive = flat curves in all reads;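 further: potency means the concentration at half of the fitted maximal effect; 0% = DMSO wells and 100% = buffer wells lacking importin beta; nearly all actives have a fitted effect of over 15% in size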
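Inhibition scored from the CFP 486 nm/YFP 530 nm FRET ratio 45 min after adding 0.125 microM importin beta to 50 nM Rango biosensor preincubated 5 min with compound (room temperature, PBS with DTT, Tween-20, BSA). No-importin wells as positive control.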
Rango release inh – prevents RanGTP from dissociating the Rango-importin beta complex; O95149+P62826; Biochemical FRET Rango-importin beta, RanGTP-induced dissociation; Potency, µM (titrated, usually from 46.1 µM), for the others: at the highest dose activity change, negative = inhibition; 0.071% of 340,000 active; AID 540253; active means falling FRET ratio curve, often poorly fitted, with flat reads before Ran was added; inconclusive means other falling curves, or compound fluorescence or quenching; inactive means flat or rising ratio curve;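 further: potency means the concentration at half of the fitted maximal effect; % of control where 0% means no effect; nearly all actives have a fitted effect of over 45% in size; -100% = wells without RanGTP and RCC1; the record marks most hits as doubtful in a second field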
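FRET read at 45 min, room temperature: inhibitors block the CFP/YFP signal rise when RanGTP (0.6 uM Ran, 2 mM GTP, 0.2 uM RCC1) frees Rango (0.1 uM) from importin beta (0.25 uM). Pre-read after 5 min compound exposure flags interference.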
* hit, by the source's call; ? = inconclusive; nt = no result given; & = joins results of further samples; [ ] = dose if it differs, or a comment. Not all compounds are listed. The share of hits here may be higher or lower than overall.

smiles	Rango release inh	Rango complex inh	miR-21 reporter	GLA inh pH 4.5
Cc1cc2c(c(=O)n1Cc1ccco1)C(c1ccccc1)C(C#N)=C(N)O2 (stereo not given)	-0.1%	-1.9%	1.1%	1.1
CCCN1C(=O)c2ccc(C(=O)Nc3cc(C)on3)cc2C1=O	-9.9%	-0.1%	-5.3%	1.0
Cc1noc(C)c1C(=O)NC(C)c1ccc(Cl)cc1Cl (stereo not given)	?	-2.2%	-1.6%	3.6
O=C(N/N=C/c1cccc([N+](=O)[O-])c1)c1cc(-c2ccccc2)nc2ccccc12	?	1.2%	-4.9%	-3.6
COc1ccc(NC(=O)c2cc(-c3ccccn3)nc3ccccc23)cc1S(=O)(=O)N(C)C	-5.0%	-0.8%	nt	nt
Cc1ccc(-n2cc(-c3ccc([N+](=O)[O-])cc3)[nH]c2=S)c(C)c1	-4.1%	7.2%	-7.9%	-10.6
COC(=O)Nc1nc(-c2ccc(F)cc2)c(C)s1	3.4%	-0.5%	-28.0%	1.8
COc1ccccc1CNC(=O)C[n+]1ccccc1	-4.5%	-3.1%	-3.3%	-1.1
CN(CCc1ccccn1)C(=O)Nc1ccc(C(C)(C)C)cc1	-14.8%	3.3%	-30.1%	-11.4
NC(N)=NCc1cccc(I)c1	-1.6%	-2.1%	nt	-4.2
Clc1ccccc1-c1nnc(-c2ccc3c(c2)OCO3)o1	14.4%	-1.1%	-64.1%	-2.6
CC(C)Cn1c(N)c(C=O)c(=O)[nH]c1=O	-6.6%	5.2%	3.9%	-1.6
COc1ccc(NC(=O)N(C)C[C@H]2Oc3c(NS(=O)(=O)c4cccs4)cccc3C(=O)N([C@@H](C)CO)C[C@@H]2C)cc1	-25.4%	-2.2%	nt	nt
Cc1ccc(CNC(=O)C(=O)c2cn(CC(=O)N3CCOCC3)c3ccccc23)cc1	4.0%	-1.0%	-30.2%	nt
O=C(CCCN1C(=O)/C(=C/c2ccccc2Cl)SC1=S)NNC(=O)c1cccnc1	-17.9%	3.0%	?	-12.5
O=C(COC(=O)C1CC2CCCC(C1)C2=O)Nc1cccc(F)c1 (stereo not given)	-1.0%	5.2%	nt	nt
CCOC(=O)C1=C(COC(=O)c2ccc(Cl)nc2)NC(=O)NC1C (stereo not given)	-10.3%	1.0%	nt	nt
Cc1ccccc1N1CCN(C(=O)c2ccc(Oc3ccc(C(F)(F)F)cn3)cc2)CC1	0.3%	0.5%	14.8%	-13.9
COCCNC(=O)C(=O)NNC(=O)c1ccccc1OC	-8.1%	-1.4%	-1.9%	-11.1
CCCCn1c(SC(C)C(N)=O)nc2cc(C(=O)OC)ccc2c1=O (stereo not given)	?	?	-0.5%	2.1
O=C1C2C3C=CC(C3)C2C(=O)N1CCN1CCN(S(=O)(=O)c2ccc3ccccc3c2)CC1 (stereo not given)	6.5%	-1.7%	4.1%	-4.5
CSc1[nH]c(=O)c(C(=O)O)cc1C#N	-2.6%	-1.2%	-2.2%	-0.7
O=C(c1noc2c1CSc1ccccc1-2)N1CCN(c2ccc(Cl)cc2)CC1	-1.2%	4.6%	-0.6%	nt
CCCn1ncc(CN2CCN(Cc3ccsc3)C(CCO)C2)c1C (stereo not given)	3.5%	3.8%	-1.1%	7.5
Cn1c(=O)c(C(=O)COc2ccc(C#N)cc2)c(N)n(Cc2ccccc2)c1=O	-13.8%	2.5%	-0.8%	-8.3[21.1 µM]
CSCC[C@H](NC(=O)OC(C)(C)C)C(=O)N1CCC(C(=O)NCC(=O)Nc2ccc(C)cc2)CC1	8.4%	-0.4%	0.2%	nt
CCN(CCNC(=O)C1CCN(S(C)(=O)=O)CC1)c1ccccc1	26.7%	-4.5%	-7.2%	3.6
C=CCSc1nc(=O)n2cccc(C)c2n1	-19.4%	-6.7%	-16.1%	0.4
Cc1ccc(N2CCN(C(=O)N3CCCC3)CC2)cc1C	-11.8%	-1.8%	-0.8%	-6.1
CCOCc1nnc(NC(=O)c2cccc(OC)c2)s1	17.8%	?	-40.9%	-10.9
COc1cccc(NC=C2C(=O)OC(C)(C)OC2=O)c1	-0.2%	2.8%	-9.9%	7.7
FC(F)(F)c1nc(Sc2ncccc2C(F)(F)F)n[nH]1	-9.7%	-3.0%	1.6%	-5.6
c1ccc2c(c1)CCCC2C1=NCCN1 (stereo not given)	?	-4.0%	-0.6%	-1.0&5.7
CCOC(=O)N/N=C/c1ccc(OCCSc2ccc(Cl)cc2)c(OC)c1	1.6%	-0.5%	-0.8%	-2.1
O=C(c1cc(COc2ccc(F)cc2Cl)on1)N1CCCCCCC1	0.2%	1.0%	-33.0%	nt
CSc1ccccc1NC(=O)C(C)N1C(=O)c2ccccc2S1(=O)=O (stereo not given)	-10.6%	0.2%	nt	nt
COc1cc(NC(=O)c2ccc(Cl)cc2)c(OC)cc1NC(=O)CN1CCCCC1	-11.5%	0.6%	-13.2%	-26.8
CS(=O)(=O)N1CCN(c2ccccc2NC(=O)c2cc(Br)ccc2Cl)CC1	0.4%	-5.3%	-0.7%	-2.7
COc1ccc(S(=O)(=O)N2CCCCCC2)cc1NC(=O)CC1OC(=O)c2ccccc21 (stereo not given)	?	-0.1%	nt	nt
Cc1ccc(S(=O)(=O)/N=C(\c2ccccc2)N(C)S(=O)(=O)c2ccc(C)cc2)cc1	-23.7%	-0.1%	0.9%	2.7
O=C(CN1N=C(c2ccc(Cl)cc2)CCC1=O)NCc1cccs1	nt	nt	1.6%	-6.5
CC1(C)OC(=O)C(=CNc2cccc(C(=O)O)c2)C(=O)O1	23.7%	-1.0%	-1.6%	-3.4
O=C1C=C(NCc2ccco2)CCC1	-5.1%	?	-2.0%	6.5
COCCNC(=O)C(=O)NCCN1CCOCC1	6.6%	3.7%	-3.4%	-6.6
CCn1nc(C(=O)OCc2cccc(S(=O)(=O)N(C)C)c2)c2ccccc2c1=O	?	0.3%	1.3%	-6.3
O=C(Nc1cccc(S(=O)(=O)N2CCOCC2)c1)C12CC3CC(CC(C3)C1)C2	?	-0.7%	nt	nt
O=S(=O)(Nc1cccc(-c2cn3c(n2)SCC3)c1)c1ccccc1	-0.9%	-1.3%	-5.8%	nt
CCCc1cc(=O)n2nc(N3CCC(C(=O)NCc4ccc(C)o4)CC3)sc2n1	1.0%	-4.4%	-8.1%	nt
CCN(CC)CCNC(=O)CCc1nnc2ccc(N3CCC(C)CC3)nn12	8.7%	-2.3%	-0.3%	nt
CN(C(=O)Cc1c(C(=O)O)n(C)c2ccccc12)c1ccc(F)cc1	-17.2%	-1.7%	-1.9%	2.6
COc1cccc(C2CC(c3cccs3)=NN2C(=S)Nc2ccccc2)c1OC (stereo not given)	0.9%	-0.5%	-8.2%	-17.9
CC1(c2ccccc2Cl)NC(=O)N(CC(=O)NC(=O)NCc2ccco2)C1=O (stereo not given)	0.4%	?	-3.1%	-5.3
O=C1CCCN1C(=O)COc1ccc([N+](=O)[O-])cc1	7.1%	0.0%	nt	nt
COc1ccc(/C=C2/SC(=O)N(CCNC(=O)C3COc4ccccc4O3)C2=O)cc1 (stereo not given)	27.9%	-5.3%	-14.9%	2.8
C(=N\Nc1ccccn1)/c1ccc2c(c1)OCCO2	-9.1%	0.2%	-60.0%	-7.5
COC(=O)Cc1ccc(NC(C)=O)cc1	-6.7%	-5.6%	nt	nt
COc1ccc(C)cc1NC(=O)c1cc2cc3ccc(C)cc3nc2o1	nt	nt	-3.6%	4.6
O=C(/C=C/C=C/c1ccc2c(c1)OCO2)N1CCCCC1	-2.6%	-0.6%	nt	-2.5
O=C(CSc1nnc(CNC(=O)c2cccs2)o1)Nc1cccc(C(F)(F)F)c1	-1.8%	0.4%	0.3%	?
CCc1nnc(NS(=O)(=O)c2ccc(NC(=O)OC)cc2)s1	-11.8%	-1.3%	-1.2%	-5.3

Following part
smiles	Rango release inh	Rango complex inh	miR-21 reporter	GLA inh pH 4.5
CCCCN(C(=O)c1ccc(-c2ccc(Cl)cc2)o1)c1c(N)n(CCC)c(=O)[nH]c1=O	2.2%	?	nt	nt
Cc1[nH]c(=O)c(C#N)c(C)c1[N+](=O)[O-]	-14.1%	0.4%	-4.6%	-15.4
COc1ccc(CNC(=O)Cn2cccc2C(=O)c2ccccc2)cc1	-10.0%	-2.7%	-42.4%	nt
COc1ccc2c(c1)C(SCC(=O)NCCc1ccc(Cl)cc1)CC(C)(C)O2 (stereo not given)	8.7%	2.4%	2.1%	-13.2
CN(Cc1ccccc1Cl)C(=O)C1CCC(=O)N(C2CCCCCC2)C1 (stereo not given)	-2.8%	0.7%	-3.8%	nt
FC(F)(F)c1ccc(Cl)c(-n2c(Cc3cccs3)n[nH]c2=S)c1	8.9%	-0.6%	-19.8%	-7.9
O=C(Nc1c2c(nn1-c1ccccc1)CS(=O)(=O)C2)c1ccccc1C(F)(F)F	35.4%	0.0%	-2.2%	nt
CSc1nnc(-c2cc3c(s2)-c2ccccc2CC3)o1	-24.1%	?	-61.0%	?
C=CCn1c(SCC(=O)NC2CCS(=O)(=O)C2)nc2scc(C3CC3)c2c1=O (stereo not given)	-16.5%	?	-10.2%	-2.4
COc1ccccc1-n1c(SCC(=O)Nc2ccc(C)cc2)nc(O)cc1=O	3.4%	-0.4%	10.2%&-3.7%	0.5
O=C(CN1C(=O)c2ccccc2C1=O)NC1(C(=O)O)CCCC1	-1.1%	0.3%	nt	nt
O=C(Cc1cccc(NC(=O)C2CCCN(C(=O)C3CCC3)C2)c1)Nc1cccc(C(=O)N2CCCC2)c1 (stereo not given)	14.3%	-3.5%	nt	nt
O=C(CSc1nnnn1-c1ccc(O)cc1)c1ccc(F)cc1	-7.4%	-1.5%	-0.3%	8.8
C=CCc1ccc(OCCCCNC2CCCC2)c(OC)c1	-4.5%	-0.2%	-5.6%	6.4
COc1ccc(C=C2NC(=S)NC2=O)cc1	?	?	nt	nt
COc1ccc(C(=O)NCC(=O)NCC(c2ccco2)N(C)C)cc1OC (stereo not given)	-4.5%	-3.8%	-1.0%	7.9
O=C(Nc1ccc(N2CCCC2)cc1)c1ccccc1F	-10.6%	?	-59.8%	1.9
CCC1CCCCN1S(=O)(=O)c1ccc(NC(=O)C2CCN(C(=O)c3ccco3)CC2)cc1 (stereo not given)	-5.9%	-0.9%	-2.9%	nt
Cc1cccn2cc(-c3cccc(S(=O)(=O)N4CC(C)OC(C)C4)c3)nc12 (stereo not given)	35.9%	-5.0%	3.1%	nt
CCOC(=O)c1c(C)sc(Sc2ccc(Cl)cc2[N+](=O)[O-])c1OC	21.8%	-2.2%	-2.2%	-9.1
CSc1ncccc1C(=O)OCC(=O)c1cccc(Br)c1	-11.0%	-2.3%	-8.7%	-9.0
O=C1OC(c2ccco2)=N/C1=C\c1ccc(-c2cccc(C(F)(F)F)c2)o1	-20.5%	?	-4.2%	-11.8
COc1ccc(-c2cc(=O)oc3cc4occ(C)c4cc23)cc1	-1.0%	-0.7%	-0.4%	-11.8
CN(CC(=O)NCC(c1ccccc1)N1CCCC1)S(=O)(=O)c1ccc(Cl)cc1 (stereo not given)	10.2%	0.2%	nt	nt
O=C1C2C3C=CC(C3)C2C(=O)N1Nc1ccc([N+](=O)[O-])cc1[N+](=O)[O-] (stereo not given)	-7.7%	1.4%	-1.1%	nt
Cc1ccccc1/C=N/NC(=O)Cn1cnc([N+](=O)[O-])n1	-4.9%	-0.5%	-2.5%	-8.8

Single records (already shown). Values in the order: Rango release inh, Rango complex inh, miR-21 reporter, GLA inh pH 4.5
COc1ccc(C=C2NC(=S)NC2=O)cc1 is entered as ?, ?, nt, nt
COc1ccc(C(=O)NCC(=O)NCC(c2ccco2)N(C)C)cc1OC (stereo not given) is entered as -4.5%, -3.8%, -1.0%, 7.9

Screens (PubChem)
